VDR inhibitor = blocks the human vitamin D receptor | P11473 | VDR-SRC2-3 peptide fluorescence polarization, 2 h | Potency, µM, without a hit: max response, negative = inhibition, most hits filed as inhibitors | actives 0.93% (n = 400,000); active = well fitted inhibition curve with a large enough effect; inconclusive = small, poorly fitted or top-dose-only effect, or another doubt; inactive = no such curve, though single readings can be large or run the other way; note: series mostly up to about 120 µM
Target sequence (P11473 whole entry, looked up): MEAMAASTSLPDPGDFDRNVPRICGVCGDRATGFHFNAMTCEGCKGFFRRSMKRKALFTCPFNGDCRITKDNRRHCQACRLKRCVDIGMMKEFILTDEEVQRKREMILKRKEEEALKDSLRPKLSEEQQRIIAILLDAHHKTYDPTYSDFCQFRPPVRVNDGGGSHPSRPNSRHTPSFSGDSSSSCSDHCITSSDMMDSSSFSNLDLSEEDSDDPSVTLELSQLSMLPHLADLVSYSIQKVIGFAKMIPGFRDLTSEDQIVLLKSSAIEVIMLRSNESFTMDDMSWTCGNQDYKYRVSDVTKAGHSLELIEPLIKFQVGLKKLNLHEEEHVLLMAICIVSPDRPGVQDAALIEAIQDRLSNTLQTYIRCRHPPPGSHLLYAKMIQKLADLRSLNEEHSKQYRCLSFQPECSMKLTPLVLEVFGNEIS
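After 23 nl compound addition and a short centrifugation, plates sat for 2 hours at ambient temperature; polarization of fluorescence then indicated loss of VDR binding to peptide SRC2-3.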
* hit, by the source's call; u = inconclusive. % is set by controls: 0 for no effect and ±100 for the full control effect; potency is the fitted concentration of half-maximal effect. Not all compounds are listed (hit frequency here may not be typical).

SMILES | VDR inhibitor
Cc1cc(O)c(CN2CCN(c3ccc(F)cc3)CC2)c2oc(=O)cc(C)c12 | 4.8%
COc1ccccc1N(CC(=O)NC(C)(C)C)S(=O)(=O)c1cccs1 | u
CSc1nc(C)c(CCOC(=O)c2ccccc2)c(=O)[nH]1 | 9.4%
CCC(C)n1c(=N)c(C(=O)NC2CCCCC2)cc2c(=O)n3cc(C)ccc3nc21 (stereo unspecified) | -2.9%
O=C(O)CN1c2cccc3cccc(c23)S1(=O)=O | 18.4%
Cc1nn(-c2cc(N3CCCCC3)ccc2N)c(=O)c2ccccc12 | 5.3%
Cn1c(C(=O)NN)cc2cc(Oc3ccccc3)ccc21 | -20.5%
S=c1nc(-c2ccco2)[nH][nH]1 | 1.8%
CCc1cccc(NC(=O)CCNS(=O)(=O)c2cc(Br)cnc2N)c1 | 2.6%
N#CC1=C2SCN(C3CCCCC3)CN2C(=O)CC1c1c(F)cccc1Cl (stereo unspecified) | 20µM*
CCOc1ccc2nc(/N=C/c3c(C)[nH]n(-c4ccccc4)c3=O)sc2c1 | -8.9%
Oc1ccc(/C=N/Nc2ccnc3cc(Cl)ccc23)c(O)c1 | 7.1%
O=C(Cc1ccc([N+](=O)[O-])cc1)NC(C(=O)O)C(O)c1cccc([N+](=O)[O-])c1 (stereo unspecified) | -10.2%
Cc1cc(OCCCCN2C(=O)NC(C)(C)C2=O)cc(C)c1Cl | 14.2%
Cc1ccc2oc(-c3ccc(C)c(NC(=O)Cc4cccs4)c3)nc2c1 | -2.9%
CC(C)[C@@H]1CN=C(N)N1C[C@@H]1CCCN1C[C@H](C)N1C[C@@H](Cc2ccccc2)N(CCc2ccc(Cl)c(Cl)c2)C1=N | -12.3%
O=C(c1ccc(NS(=O)(=O)c2cccc([N+](=O)[O-])c2)cc1)N1CCCCCC1 | 0.1%
CC(=O)c1cccc(NC(=O)c2sc(-n3nc(C)c(CCC(C)C)c3C)nc2C)c1 | 6.6%
O=C(N/C(=C\c1ccccc1)C(=O)N1CCOCC1)c1ccccc1Cl | 7.3%
Cc1ccc(CNC(=O)C2CC(=O)N(C3CCCCCC3)C2)cc1 (stereo unspecified) | -16.7%
COc1cc(/C=N/NC(=S)NC(C)C)ccc1OCC(=O)Nc1c(C)cc(C)cc1C | -13.0%
Cc1ccccc1NC(=O)c1cccc(NC(=O)c2ccco2)c1 | 4.0%
C=CCn1c(SCC(=O)NCc2ccc3c(c2)OCO3)nnc1C1CCCCC1 | 1.7%
CC1=NNC(=O)C1CCC(=O)N/N=C/C=C/c1ccccc1 (stereo unspecified) | -5.7%
Cc1onc(-c2ccccc2)c1C(=O)Nc1ccc(Cl)cn1 | 16.2%
Further results follow:
SMILES | VDR inhibitor
CSc1nnc(-c2ccccc2)c(=O)[nH]1 | 0.4%
Cc1ccc2nc(-c3cccnc3)c(NC3CCCC3)n2c1 | -17.1%
Cc1cc(C)cc(NC(=O)CN2CCN(C(=O)C3CCCO3)CC2)c1 (stereo unspecified) | -7.5%
Oc1cccc(/C=N/Nc2cc(N3CCOCC3)nc(N3CCOCC3)n2)c1 | -5.8%
COc1cccc(NC(=O)COc2ccc(Br)c(C)c2)c1 | 8.4%
COc1ccc(NC(=O)CSc2nc(N)cc(N)n2)cc1S(=O)(=O)N1CCCCC1 | -17.6%
CCOC(=O)C1CCN(c2ncnc3c2c(-c2ccccc2)cn3-c2cccc(C)c2)CC1 | 3.7%
COc1cc(C(=O)Oc2cc(C)cc(C)c2)cc(OC)c1OC | 13.5%
CCOC(=O)N1CCN(c2nc3ccc(C)cc3n3cnnc23)CC1 | -11.4%
O=S(=O)(NCC1(N2CCOCC2)CCCCC1)c1ccc(F)c(F)c1F | -11.6%
COc1ccc(N2CCN(CCCNC(=O)CN3C(=O)COc4ccccc43)CC2)cc1 | -21.8%
Cc1cccn2c(=O)nc(SCC(=O)N3CCCCCC3)nc12 | -8.0%
COc1cccc(C(=O)/C=C/Nc2ccc(S(=O)(=O)Nc3cnc4ccccc4n3)cc2)c1 | -2.1%
COc1ccccc1CNC(=O)C1CCC(CNc2c(N3CCCCC3)c(=O)c2=O)CC1 (stereo unspecified) | -5.5%
O=C(CCC1CCN(Cc2ccc(C#CCCO)cc2)CC1)NC1CC1 | 5.6%
CCc1cc(=O)oc2c3c(cc(OCC(=O)NCCC(=O)O)c12)OC(C)(C)CC3 | -8.4%
Cc1ccc2c(CC(=O)NNC(=O)c3ccncc3)coc2c1 | -9.9%
CCc1cccc(Nc2c3c(nc4ncnn24)CCC3)c1 | 3.5%
CCn1c(SCC(=O)Nc2ccc3c(c2)OCCO3)nnc1-c1ccccn1 | 16.9%
O=C(CNS(=O)(=O)c1ccccc1)OCC(=O)c1ccccc1Cl | 0.1%
Cn1c(/C=C/c2ccc([N+](=O)[O-])o2)nc2ccccc2c1=O | -19.6%
Cc1cc(C)c(NC(=O)CN2C(=O)NC3(CCCCC3)C2=O)c(Cl)c1 | 7.2%
CCOC(=O)c1c(NCc2ccc3c(c2)OCO3)c2ccccc2[nH]c1=O | 0.5%
CCOc1ccc(-c2c(C(=O)N/N=C/c3ccc(OC)cc3)nnn2-c2nonc2N)cc1 | -1.6%
CCOc1ccc(CNC(=O)C2=Cc3cccc(OC)c3OC2)cc1 | 2.8%

Three structures from above, ordered by SMILES length, high to low:
SMILES | VDR inhibitor
COc1ccc(NC(=O)CSc2nc(N)cc(N)n2)cc1S(=O)(=O)N1CCCCC1 | -17.6%
N#CC1=C2SCN(C3CCCCC3)CN2C(=O)CC1c1c(F)cccc1Cl (stereo unspecified) | 20µM*
Cc1ccccc1NC(=O)c1cccc(NC(=O)c2ccco2)c1 | 4.0%

Molecules above with a COOH group:
SMILES | VDR inhibitor
O=C(O)CN1c2cccc3cccc(c23)S1(=O)=O | 18.4%
O=C(Cc1ccc([N+](=O)[O-])cc1)NC(C(=O)O)C(O)c1cccc([N+](=O)[O-])c1 (stereo unspecified) | -10.2%
CCc1cc(=O)oc2c3c(cc(OCC(=O)NCCC(=O)O)c12)OC(C)(C)CC3 | -8.4%

Next section:
SMILES | VDR inhibitor
CCCCC(=O)Nc1cccc(NC(=O)C(C)C)c1 | -3.7%
Cc1cc(C)nc(NS(=O)(=O)c2ccc(NC(=O)COc3ccc(C(C)(C)C)cc3)cc2)n1 | -5.1%
O=C(Nc1ccccc1)N1CCC2(CCNCC2)CC1 | -12.4%
Cc1ccc(S(=O)(=O)NCCc2ccncc2)cc1C | -8.8%
CSCCC(NC(=O)C1CCCCC1)c1nc2ccccc2[nH]1 (stereo unspecified) | 5.3%
CCOC(=O)c1c(C)nc2sc3c(c2c1-c1ccc(OC)cc1)NC(c1ccccc1)NC3=O (stereo unspecified) | -1.2%
CC(C)c1ccc(NC(=O)/C(C#N)=C/c2ccncc2)cc1 | u
COC(=O)c1ccccc1NC(=O)c1ccc2c(c1)OCCCO2 | -2.2%
O=C(c1ccc([N+](=O)[O-])cc1)N(Cc1cccs1)C1CCS(=O)(=O)C1 (stereo unspecified) | -2.3%
CCC(=Cc1ccc(CC)cn1)CC | 3.2%
Cc1ccc(CNC(=O)CCNS(=O)(=O)c2cccs2)cc1 | -10.6%
CCc1ccc(NC(=O)c2cnn(-c3ccccc3)c2C)cc1 | -12.3%
CCOC(=O)c1c(-c2ccc(C)o2)csc1NC(=O)CN1CCC(C(N)=O)CC1 | -22.7%
COc1ccc(-c2nnsc2N2C(=O)c3ccccc3C2=O)cc1 | -9.1%
Cc1ccccc1N(C(=O)c1snc(C(N)=O)c1N)C(C(=O)NC1CCCC1)c1ccco1 (stereo unspecified) | 12.2%
O=C(CCN1CCCC1Cc1ccccc1)c1ccc2c(c1)OCCO2 (stereo unspecified) | 35.5µM*
COc1cccc(CNC(=O)c2cnc3c(-c4ccc(F)cc4)c(C)nn3c2C)c1 | 7.2%
COC(=O)c1ccc(NC(=O)CC2C(=O)N(c3ccc(F)cc3)C(=O)N2Cc2ccc(OC)cc2)cc1 (stereo unspecified) | 11.0%
CC1=C(C(=O)Nc2ccccc2)C(c2ccc(C)cc2)N=C(Nc2nc3ccccc3o2)N1 (stereo unspecified) | -0.7%
COC(=O)COc1ccc(C(c2c(C)[nH][nH]c2=O)c2c(C)[nH][nH]c2=O)cc1 | -10.2%
CCN(CC)c1ccc(-c2nc3cnccn3c2NC2CCCC2)cc1 | -15.8%
CCCCN(C)CCNC(=O)c1cc(-c2cccnc2)nc2ccc(S(=O)(=O)N3CCC(C)CC3)cc12 | u
O=C(Oc1cccc(C(=S)N2CCOCC2)c1)c1cc([N+](=O)[O-])cc([N+](=O)[O-])c1 | 22.5%
O=C(CNS(=O)(=O)c1ccc(Br)s1)N1CCN(c2ncccn2)CC1 | 1.5%
Cn1c(=NC(=O)c2ccccc2[N+](=O)[O-])sc2cccc(F)c21 | 3.4%

VDR inhibitor: entries above that show a hit.
SMILES | VDR inhibitor
N#CC1=C2SCN(C3CCCCC3)CN2C(=O)CC1c1c(F)cccc1Cl (stereo unspecified) | 20µM*
O=C(CCN1CCCC1Cc1ccccc1)c1ccc2c(c1)OCCO2 (stereo unspecified) | 35.5µM*

Following part
SMILES | VDR inhibitor
COc1ccc(N(C(=O)CNC(=O)c2ccco2)C(C(=O)NC2CCCCC2)c2ccncc2)cc1 (stereo unspecified) | 11.1%
Cc1cc(C)c(C#N)c(N2CCCC(C(N)=O)C2)n1 (stereo unspecified) | 11.4%
C=CCc1cccc2cc(C(=O)NC3CCCCC3)c(=O)oc12 | 18.2%
CC(=O)N1CCOc2ccc(S(=O)(=O)NCC3CCC(C(=O)Nc4ccc(C)cn4)CC3)cc21 (stereo unspecified) | -6.1%
O=C(c1cnn2c(C(F)F)cc(-c3ccccc3)nc12)N1CCN2CCCC2C1 (stereo unspecified) | 11.1%
CN1CCN(c2ncc3nc(-c4cccc(C#N)c4)c(=O)n(C)c3n2)CC1 | -7.7%
Cc1nn2cc(-c3ccc(Cl)cc3)cnc2c1Br | 3.3%
CCN1CCN(C(=S)NC(=O)/C=C/c2cccs2)CC1 | -2.4%
COc1cc(C(=O)NCC(c2cccs2)N2CCc3ccccc32)cc(OC)c1OC (stereo unspecified) | -14.1%
COc1ccc(C(C(=O)NC2CCCC2)N(C(=O)c2ccco2)c2ccc(OC)c(OC)c2)cc1 (stereo unspecified) | -2.1%
CN(c1ccccc1)S(=O)(=O)c1ccc2c(c1)OCCO2 | -0.1%
CN(C)c1ccc(C(CNC(=O)c2ccccc2Cl)N2CCCC2)cc1 (stereo unspecified) | 5.6%
C=C(C)C1CC=C(C)/C(=N/NC(=O)COc2cccc(C)c2)C1 (stereo unspecified) | 8.0%
Cn1c(N)c(C(=O)COC(=O)/C=C/c2ccccc2)c(=O)n(C)c1=O | -20.9%
CC(C)N1CC=C2C(C#N)=C(N)C(C#N)(C#N)C(c3ccccc3)C2C1 (stereo unspecified) | -21.4%
CC(C)CN(C(=O)COC(=O)CCc1c[nH]c2ccccc12)C1CCS(=O)(=O)C1 (stereo unspecified) | 9.2%
O=C(NC1CCCCCC1)C1CCN(C(=O)c2ccc(Br)cc2)CC1 | 17.0%
COc1cc2c(cc1OC)CN(CC(=O)Nc1ccccc1C#N)CC2 | -5.1%
CC(=O)Nc1ccn(C2CC3OCC(NC(=O)C(NC(=O)OC(C)(C)C)C(C)OCc4ccccc4)C3O2)c(=O)n1 (stereo unspecified) | -13.1%
Cc1ccc(N2C(=O)c3ccc(C(=O)Nc4cccnc4)cc3C2=O)c(C)c1 | -7.0%
CC(C)c1ccc(/C=N/Nc2cc(N3CCOCC3)nc(N3CCOCC3)n2)cc1 | u
Cc1cc(C)n(S(=O)(=O)c2cc(Cl)ccc2Cl)n1 | -21.0%
NC(=O)c1cc([N+](=O)[O-])cc2c1C=Cc1ccccc1O2 | -9.4%
Cc1c(Cl)ccc2c1NC(=O)[C@]21[C@@H]2C(=O)N(Cc3ccccc3)C(=O)[C@@H]2[C@@H]2CCCN21 | 0.2%
CC(C)N(C)NC(=S)Nc1ccccc1 | 12.3%
(more compounds)
SMILES | VDR inhibitor
C(=N\Nc1nc2ccccc2[nH]1)/c1cccc2nccnc12 | 3.9%
Cc1ccc(/C=C/S(=O)(=O)NCCC(=O)NCc2ccccc2F)cc1 | -12.8%
Cc1noc(C)c1S(=O)(=O)N(C)C[C@H]1Oc2ccc(NS(=O)(=O)c3ccc(F)cc3)cc2C(=O)N([C@H](C)CO)C[C@@H]1C | -0.7%
CC(=O)c1c(C)nn(C(=O)c2cccs2)c1C | -4.3%
O=C(Nc1cccc(C(=O)Nc2ccccc2C(=O)O)c1)c1cccc(Cl)c1 | 5.1%
COc1ccc(-c2csc(N3CCN(S(=O)(=O)c4ccc5c(c4)NC(=O)CO5)CC3)n2)cc1 | 2.2%
O=C(c1ccccc1)N(Cc1cccnc1)C1(C(=O)Nc2ccccc2)CCCCC1 | -14.2%
CC(C)(C)c1ccc(C(=O)N2CCC(C(=O)NC3CC3)CC2)cc1 | -9.0%
FC(F)(F)c1ccccc1NC(=S)N1CCN(c2ccccn2)CC1 | -18.1%
Fc1ccc(CNC(=S)Nc2cccc(C(F)(F)F)c2)cc1 | -3.6%
COc1ccc(Cl)cc1Nc1nnc(-c2ccncc2)s1 | 15.0%
COc1ccc2c(c1)[nH]c1c(=O)n(Cc3ccccn3)cnc12 | -10.5%
CCC(=O)Oc1ccc(C(=O)Nc2cccc(C(=O)NCC(C)C)c2)cc1 | -11.7%
COc1ccc([N+](=O)[O-])cc1NC(=O)CSc1ccccc1 | -12.9%
Cc1ccc2cc(C)c(N3CCN(c4ccccn4)CC3)nc2c1 | -12.0%
O=C(Nc1ccccc1)Nc1sccc1-c1nc2ccccc2s1 | 29.3%
CC(C)CCNC(=O)Cn1c(-c2cccs2)cc2cc(F)ccc21 | 5.7%
COc1cc(OC)cc(-c2sc3ccc(OC)cc3c2C#CC2(N)CCCCC2)c1 | -12.8%
Cc1cccn2cc(CSc3ccccc3N)nc12 | -10.8%
O=C1c2ccccc2C(=O)N1CC1c2ccccc2CCN1S(=O)(=O)c1ccccc1 (stereo unspecified) | -9.0%
C=CCC[C@H](Cc1ccc(F)cc1)C(=O)OC[C@@H](NC(=O)[C@@H](CC=C)CC(=O)N[C@@H](CO)Cc1ccccc1)C(C)(C)C | 11.8%

Screening results: PubChem, National Center for Advancing Translational Sciences (NCATS)
